High-throughput results from PubChem BioAssay.
LANA-H2B inh = blocks KSHV LANA binding to histone H2A/H2B; Q9QR71; cell-free LANA-H2A/H2B peptide, fluorescence polarization; inhibition, % (no concentration beside the values); 320,000 compounds, 0.6% hits; in the data active = inhibition mostly above about 10%, no sharp cut-off; inactive = mostly below about 6.7%;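 note: stock transfer was 7.5 nL into about 10 µL; 0% = median of vehicle wells and 100% = median of positive control wells; one replicate is shown; the record names a cut of 25% in any replicate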
ALR inh = human ALR oxidase inhibition via reduced H2O2 | P55789 | purified ALR, DTT oxidation, H2O2 HRP-luminol luminescence | inhibition, % (no concentration beside the values) | 290,000 compounds, 3.8% hits | AID 485317;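 active = mean and each replicate at 75% or more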;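 note: stock transfer was 7.5 nL into about 7.5 µL; 0% = neutral wells and 100% = wells with inactivated enzyme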
Target sequence (P55789 whole entry, looked up): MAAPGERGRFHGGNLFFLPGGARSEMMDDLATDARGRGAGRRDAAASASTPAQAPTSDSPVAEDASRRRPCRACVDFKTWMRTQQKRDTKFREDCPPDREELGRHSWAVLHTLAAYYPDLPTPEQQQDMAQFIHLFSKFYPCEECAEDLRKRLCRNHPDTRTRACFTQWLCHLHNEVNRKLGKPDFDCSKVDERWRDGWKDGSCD
UCH37 DUB inh = human UCH37 deubiquitinating enzyme inhibition; purified proteasome/UCH37, Ub-AMC cleavage fluorescence; AID 588478; 330,000 compounds, 0.33% hits; Q9Y5K5; inhibition, % (concentration not given with the values);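 active = mean of two replicates above 20%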;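 note: 0% = compound-free wells with enzyme and 100% = wells lacking proteasome; stock transfer was 100 nL into about 20 µL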
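Material: Human UCH37 enzyme supplied as purified proteasome complex | Schedule: 30 min preincubation with enzyme, 25 min cleavage at room temperature | Detection: AMC fluorescence 355/460 nm | Measure: % inhibition of Ub-AMC cleavage fluorescence | Controls: Wells without proteasome as full block, compound-free enzyme plus substrate as uninhibited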
Ecoli growth = blocks Escherichia coli growth; OD600, 23 h; stronger effect = lower value; OD600 absorbance (concentration not given with the values); 330,000 compounds, 0.21% hits;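 active = OD600 absorbance below the run mean of sample wells minus 3.6 SD, in any replicate, cut at about 0.56 in these data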;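 note: stock transfer was 300 nL into about 60 µL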
HNF4A DNA FP = change in binding of human HNF4 alpha to DNA; HNF4a-FITC DNA binding, fluorescence polarization, 1 h; activity change, % at 10 µM; 360,000 compounds, 0.3% hits; AID 1224865; in the data active = activity change above about 30%, passing the limit was not always enough;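 note: controls were the assay level and a saturating level of protein; the project sought stronger binding though the title names inhibitors; some compounds called inactive have numbers as strong as hits; positive values seem to mean higher polarization but the record does not say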
B2AR ag = agonists of human beta-2 adrenergic receptor inducing internalization | 340,000 compounds, 0.43% hits | Am2.2-beta2AR cells, FAP receptor internalization, flow cytometry; reference of the scale not given here | response, % (test concentration not listed) | P07550 | AID 504454;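 active = response above a set limit, near 3 SD of response in nonfluorescent compounds, cut at about 42% in these data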;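 note: stock transfer was 100 nL into about 11 µL; a reference agonist was the positive control; negative values mostly stem from fluorescent compounds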
Target sequence (P07550 whole entry, looked up): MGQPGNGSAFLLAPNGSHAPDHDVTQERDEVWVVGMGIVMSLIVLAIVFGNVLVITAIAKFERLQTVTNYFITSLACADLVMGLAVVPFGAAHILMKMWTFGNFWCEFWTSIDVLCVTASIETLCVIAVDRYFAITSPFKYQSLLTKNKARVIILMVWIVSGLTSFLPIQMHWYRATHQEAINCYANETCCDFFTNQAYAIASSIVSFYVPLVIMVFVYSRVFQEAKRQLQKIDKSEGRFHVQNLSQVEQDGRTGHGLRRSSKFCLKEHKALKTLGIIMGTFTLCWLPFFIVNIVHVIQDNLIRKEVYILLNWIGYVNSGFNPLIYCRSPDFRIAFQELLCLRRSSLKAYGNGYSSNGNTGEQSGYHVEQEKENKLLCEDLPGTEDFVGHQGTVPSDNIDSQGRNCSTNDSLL
FGF22 binding = shifts melting point of recombinant human FGF22 | recombinant FGF22 thermal shift, SYPRO orange fluorescence; percent of sucrose octasulfate shift, DMSO zero | calls only at 9.99 µM | 340,000 compounds, 1.5% hits;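 active = melting point raised past a set limit in the mean and every replicate; three in four hits are not shown here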
Target sequence (Q9HCT0 whole entry, looked up): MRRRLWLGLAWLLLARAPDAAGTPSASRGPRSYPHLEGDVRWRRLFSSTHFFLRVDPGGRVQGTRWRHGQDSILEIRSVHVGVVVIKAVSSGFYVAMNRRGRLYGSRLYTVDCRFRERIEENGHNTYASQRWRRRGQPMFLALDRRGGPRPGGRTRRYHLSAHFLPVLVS
Starred values were filed as active, the others as inactive; i = inactive; nt = not tested or not shown; & = joins results of further samples. Some of the compounds tested (hit frequency here may not be typical).

cpd	mol	LANA-H2B inh	ALR inh	UCH37 DUB inh	Ecoli growth	HNF4A DNA FP	B2AR ag	FGF22 binding
1	Cc1noc(/C=C/c2ccc(-c3ccccc3Cl)o2)c1[N+](=O)[O-]	-7.7	-9	-4.5	0.73	23	-404	nt
2	O=C(O)CCSc1nnc(COc2ccc([N+](=O)[O-])cc2)n1-c1ccccc1	-4.1	-2	5.4	0.69	-1.6	2	i
3	O=C(COC(=O)/C=C/c1cccc(Br)c1)NCc1ccco1	3.2	nt	-0.3	0.65	-1.2	-6	i
4	Cc1ccc(-n2c(-c3ccccc3)cc(=O)nc2C)cc1	-5.7	-3	-0.3	0.65	0.2	4	nt
5	O=C(Nc1ccccn1)C1CCCN(c2ncnc3c2nc2n3CCCCC2)C1 (stereo unspecified)	6.2	3	4.6	0.69	-1.2	-4	i
6	CC(=O)OCC(=O)[C@@]1(O)[C@H](C)C[C@H]2[C@@H]3CCC4=CC(=O)C=C[C@]4(C)[C@@]3(F)[C@@H](O)C[C@@]21C	2.8&-26	nt	2.0	nt	-1.6	3	i
7	Cn1c(=O)c2[nH]c(NCC3CCCO3)nc2n(-c2ccccc2)c1=O (stereo unspecified)	-0.8	43	-2.5	0.69	5.0	-2	nt
8	O=[N+]([O-])c1cc(C(F)(F)F)ccc1NCCNC(=S)Nc1ccc(Cl)cc1	-6.6	0	3.7	0.61	-0.9	-2	i
9	Cc1cccc(C)c1NC(=O)CC(NCc1ccco1)C(=O)O (stereo unspecified)	-3.8	0	2.3	0.65	2.9	3	i
10	CC(C)(C)NC(=O)NC(=O)COC(=O)CCCc1c[nH]c2ccccc12	4.1	nt	1.1	0.71	-0.5	5	nt
11	O=C1CSC(=Nc2cc(Cl)ccc2Cl)N1	-3.5	8	4.2	0.6	0.2	5	i
12	Cc1ccc2nc(N3CCN(C)CC3)c(C=O)c(=O)n2c1	-2.1	-21	-2.8	0.69	-23	2	i
13	O=C(Cc1ccsc1)NCC(=O)Nc1ccc(F)c(F)c1	1.2	-8	0.2	0.68	0.8	-4	i
14	Cc1ccc(NC(=O)CCS(=O)(=O)c2ccc(Br)s2)cc1	-0.9	17	6.3	0.66	-1.4	-6	i
15	CN1CCN(Cc2oc(CO)cc(=O)c2O)CC1	0.6	58	4.1	0.74	1.9	-1	nt
16	Cc1ccc(CS(=O)Cc2ccc(C(=O)N3CCN(c4ccccn4)CC3)o2)cc1 (stereo unspecified)	1.5	-1	-1.6	0.68	-15	3	i
17	Cc1ccc(OCC(=O)NCCCNC(=O)c2cnccn2)cc1C	3.8	0	0.3	0.65	-0.2	2	i
18	CCN1CCN(S(=O)(=O)c2ccc(C(=O)Nc3sc4c(c3C(N)=O)CCN(CC)C4)cc2)CC1	-5.4	0	7.2	0.69	28	-23	i
19	O=C(Nc1ncc(Cc2cccc([N+](=O)[O-])c2)s1)c1ccco1	-2.4	-10	3.8	0.68	5.4	-17	i
20	COc1ccc2nc(NC(=O)CSC3=NCCS3)sc2c1	-1.7	98*	1.3	0.73	3.1	6	nt
21	CC(C)(C)NC(=O)C1CCN(S(=O)(=O)c2cccc3nsnc23)CC1	-0.4	-1	1.4	0.67	-2.1	-1	i
22	COC(=O)c1c(NC(=O)CSc2nc(-c3ccco3)cc(C(F)(F)F)n2)sc2c1CCCC2	-0.6	-5	1.6	0.7	-1.5	5	i
23	COc1ccc(NS(=O)(=O)c2ccc3c(c2)N(C(C)=O)CCO3)c(OC)c1	-4.4	0	6.9	0.71	-2.0	4	i
24	COc1ccc(Cl)cc1C(=O)Nn1c(-c2cccs2)nc2ccccc2c1=O	-1.8	0	0.2	0.71	-2.4	68*	i
25	O=C1[C@@H]2[C@H](C(=O)N1CC(O)COCc1ccccc1)C1C=C[C@H]2C1 (stereo partly specified)	nt	nt	nt	nt	-1.4	-7	i

Further results.
cpd	mol	LANA-H2B inh	ALR inh	UCH37 DUB inh	Ecoli growth	HNF4A DNA FP	B2AR ag	FGF22 binding
26	COc1ccc([N+](=O)[O-])cc1NC(=O)c1ccc(Br)s1	-4.9	-9	-0.2	0.69	4.5	-3	i
27	CCN(CC)S(=O)(=O)c1ccc(-n2c(=O)c(C(C)C)c(C)n2C)cc1	-4.8	-2	1.7	0.66	-3.7	0	i
28	CC1C/C(=C\c2ccccc2[N+](=O)[O-])c2nc3ccccc3c(C(=O)O)c2C1 (stereo unspecified)	-2.0	-11	4.6	0.67	-5.2	-2	nt
29	CCCc1nc(C)cc(N2CCN(c3ccccc3)CC2)n1	3.1	nt	4.4	0.65	-3.2	-3	i
30	Cn1c2ccccc2c2c(C(=O)N3CCN(c4ccccc4)CC3)cn(C3CCCC3)c(=O)c21	-4.5	2	-7.0	0.73	0.7	6	nt
31	CCOC(=O)/C=c1\s/c(=C\c2ccc3cc(OC)ccc3c2)c(=O)n1CC(=O)NCC1CCCO1 (stereo unspecified)	-4.2	-17	nt	nt	23	1	nt
32	CCOC(=O)C1CCN(S(=O)(=O)CCNC(=O)c2ccc3c(c2)OCO3)CC1	4.8	14	0.8	0.71	-2.8	2	i
33	COc1ccccc1-c1cn[nH]c1-c1ccc(OCc2ccc([N+](=O)[O-])cc2)cc1O	1.0	nt	3.6	0.78	-2.7	26	i
34	COc1ccc(C(CNC(=O)Cc2ccc3ccccc3c2)N(C)C)cc1 (stereo unspecified)	-2.8	36	0.6	0.64	-0.5	5	i
35	CCOC(=O)C1CCN(C(=O)c2sccc2Cl)CC1	1.7	-5	1.6	0.69	1.3	8	i
36	Cc1ccc(NS(=O)(=O)c2ccc(C(=O)NCc3ccccn3)cc2)cc1	1.0	0	-0.3	0.72	0.0	-4	i
37	CCOc1ccc2[nH]c(=O)c(CN(CCCO)C(C)=O)cc2c1	-2.7	-2	-21	0.72	0.0	4	nt
38	Cc1cc(C(=O)NNC(=O)c2c(-c3c(Cl)cccc3Cl)noc2C)no1	-4.8	3	3.7	0.7	-3.0	-2	i
39	CCCCC(=O)OCc1nc2ccccc2s1	2.3	2	2.8	0.7	3.0	-3	i
40	CCCN(CCC)CCCNC(=O)c1nn(-c2cccc(OC)c2)c(=O)c2ccccc12	-0.4	-14	3.4	0.7	0.4	-1	i
41	O=C(Nc1ccccc1C(=O)N/N=C/c1ccco1)c1ccc(F)cc1	2.1	57	nt	nt	1.9	1	nt
42	CCOC(=O)O[C@]1(C(=O)OCCl)CC[C@H]2[C@@H]3CCC4=CC(=O)C=C[C@]4(C)[C@H]3[C@@H](O)C[C@@]21C	1.3	-11	0.7	nt	nt	nt	nt
43	COc1ccc(NC(=O)c2ccccc2S(=O)c2ccccc2C#N)cc1 (stereo unspecified)	6.8	-25	2.8	0.68	-1.8	-2	i
44	O=C(O)c1cc(N/N=C/c2ccc3c(c2)OCCO3)ccc1Cl	1.3	93*	nt	nt	-1.6	-4	i
45	CCCCN(C)C(=O)c1nc2ccccn2c1CN1CCN(c2ccccn2)CC1	7.9	-1	-0.1	0.67	2.1	7	i
46	COc1cccc(-c2nc(CS(=O)(=O)CC(=O)N3CCN(c4ccccn4)CC3)c(C)o2)c1	0.1	54	2.1	0.76	2.0	-17	i
47	COCCN(C(=O)COC(=O)CSc1ccc(Cl)cc1)c1c(N)n(CC(C)C)c(=O)[nH]c1=O	nt	nt	-0.1	0.7	-2.6	-5	i
48	CN(CCOc1ccccc1)C(=O)C1CCC(=O)N(CCCN2CCOCC2)C1 (stereo unspecified)	-5.5	-8	3.9	0.64	-4.2	13	i
49	Cn1nc(C(=O)Nc2ccccc2Cl)cc1C(=O)Nc1ccccc1Cl	-5.5	-1	8.2	0.64	-1.1	6	i
50	Cc1c(CN(C)CCc2ccccc2)c(=O)n(-c2ccccc2)n1C	-5.7	-2	5.0	0.7	1.3	-9	i

An excerpt from above in order of the UCH37 DUB inh value, descending.
cpd	mol	LANA-H2B inh	ALR inh	UCH37 DUB inh	Ecoli growth	HNF4A DNA FP	B2AR ag	FGF22 binding
18	CCN1CCN(S(=O)(=O)c2ccc(C(=O)Nc3sc4c(c3C(N)=O)CCN(CC)C4)cc2)CC1	-5.4	0	7.2	0.69	28	-23	i
43	COc1ccc(NC(=O)c2ccccc2S(=O)c2ccccc2C#N)cc1 (stereo unspecified)	6.8	-25	2.8	0.68	-1.8	-2	i
1	Cc1noc(/C=C/c2ccc(-c3ccccc3Cl)o2)c1[N+](=O)[O-]	-7.7	-9	-4.5	0.73	23	-404	nt

New compounds follow:
cpd	mol	LANA-H2B inh	ALR inh	UCH37 DUB inh	Ecoli growth	HNF4A DNA FP	B2AR ag	FGF22 binding
51	Cc1cccc(NC(=O)Nc2c(C)[nH]c(=O)[nH]c2=O)c1C	-1.8	0	2.8	0.69	1.0	-7	i
52	Cc1ccc(CNC(=O)c2nnc(CS(=O)(=O)c3ccccc3)o2)cc1	4.6	-3	2.2	0.69	3.2	-6	i
53	CCC(=O)c1ccc(OCC(=O)OCC(=O)NC2CCCCCCC2)cc1	-1.6	2	-0.3	0.71	-1.0	-4	i
54	CCc1nnc(NS(=O)(=O)c2ccc(NC(=O)COc3ccc4ccccc4c3)cc2)s1	-3.3	-18	0.6	0.66	2.1	-1	i
55	COc1cc(CCC(=O)OCC(=O)Nc2sccc2C(N)=O)cc(OC)c1OC	nt	nt	4.6	0.68	2.3	10	i
56	O=[N+]([O-])c1ccc(N/N=C/c2cccc(O)c2)cc1	-1.0	67	nt	nt	14	-9	i
57	Cc1[nH][nH]c(=O)c1C(c1ccc(Br)cc1)c1c(C)[nH][nH]c1=O	-3.8	16	8.7	0.67	-0.8	-1	i
58	CC[C@H]1OC(=O)[C@H](C)[C@@H](O[C@H]2C[C@@](C)(OC)[C@@H](O)[C@H](C)O2)[C@H](C)[C@@H](O[C@@H]2O[C@H](C)C[C@H](N(C)C)[C@H]2O)[C@](C)(O)C[C@@H](C)C(=NOCOCCOC)[C@H](C)[C@@H](O)[C@]1(C)O	0.1	-16	0.2	nt	2.1	-3	i
59	O=C(c1ccccc1)N1CCCC(c2ccc(Cl)cc2)=N1	-3.8	2	5.0	0.63	0.1	2	i
60	O=C(N/N=C/c1c[nH]c2ccccc12)c1cc(-c2ccc3ccccc3c2)n[nH]1	0.4	36	nt	nt	1.2	17	i
61	CNC(=S)N1N=C(c2cccs2)CC1c1ccc(F)cc1 (stereo unspecified)	-3.0	-7	-0.4	0.67	0.6	-13	i
62	CCCCCCCCNc1ccccc1S(=O)(=O)NCc1ccccc1	nt	nt	-8.0	0.68	0.8	2	i
63	CNc1ccc(/C=C(\C#N)c2ccccn2)cc1[N+](=O)[O-]	-2.6	-3	2.2	0.72	23	-8	i
64	C(=C\c1ccccc1)/CSc1nnc(-c2ccncc2)n1Cc1ccco1	-4.7	43	3.6	0.78	2.8	-8	nt
65	CCOC(=O)c1c(C)n(-c2ccccc2)c2ccc(O)cc12	-5.7	nt	-2.3	0.72	2.2	0	i
66	Cc1nnc(NC(=O)CSCc2c(C)noc2C)s1	-1.1	-11	5.8	0.68	-2.8	6	nt
